RecA intein inh – Mtb RecA intein splicing inhibitors, primary screen, biochemical, fluorescence, HTS; cell-free RecA intein splicing; inhibition, %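 (about 9 µM by stock and volumes)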; hit rate 0.75% among 290,000; AID 2221, 2009; in the data active = inhibition above about 30%; inconclusive = no clear call, values can overlap the other calls;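 also: 0% = vehicle wells and 100% = reference inhibitor control wells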
Target sequence (P9WHJ3 whole entry, looked up): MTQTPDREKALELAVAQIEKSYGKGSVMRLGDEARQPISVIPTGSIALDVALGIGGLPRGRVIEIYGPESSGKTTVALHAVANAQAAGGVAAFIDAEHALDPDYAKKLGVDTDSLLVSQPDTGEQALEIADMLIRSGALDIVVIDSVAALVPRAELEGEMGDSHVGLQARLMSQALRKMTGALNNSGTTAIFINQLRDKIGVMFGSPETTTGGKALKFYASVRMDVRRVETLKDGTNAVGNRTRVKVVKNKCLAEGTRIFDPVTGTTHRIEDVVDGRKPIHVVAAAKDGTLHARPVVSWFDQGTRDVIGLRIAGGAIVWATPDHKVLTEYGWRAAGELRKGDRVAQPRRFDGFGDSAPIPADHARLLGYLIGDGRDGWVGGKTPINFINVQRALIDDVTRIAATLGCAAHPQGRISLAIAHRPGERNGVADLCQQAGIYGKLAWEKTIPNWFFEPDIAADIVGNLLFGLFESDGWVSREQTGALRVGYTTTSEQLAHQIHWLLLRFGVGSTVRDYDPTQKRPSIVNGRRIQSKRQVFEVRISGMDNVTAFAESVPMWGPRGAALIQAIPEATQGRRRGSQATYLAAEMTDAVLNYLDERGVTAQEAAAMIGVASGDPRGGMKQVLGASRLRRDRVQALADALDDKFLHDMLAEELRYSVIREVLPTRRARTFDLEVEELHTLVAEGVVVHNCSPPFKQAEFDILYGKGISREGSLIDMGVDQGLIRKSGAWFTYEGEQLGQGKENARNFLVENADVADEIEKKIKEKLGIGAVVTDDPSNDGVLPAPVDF
Mtb bLac sens – beta-lactam sensitization of Mtb H37Rv, H37Rv; M. tuberculosis H37Rv growth with meropenem, percent inhibition; hits of this screen are not shown here; inhibition, % at 25 µM; hit rate 0.27% among 330,000; AID 434955, 2010;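 active = about 74% or more and at least 40 points above the plate without the antibiotic, then above 30% in a dose series; inconclusive = first-round hits that could not be retested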;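 also: growth measured after seven days incubation then overnight dye step; 0% = bacteria only wells and 100% = bacteria with antibiotic; twin plates without the antibiotic show which effects depend on it; some results filed as inactive read as strong as hits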
Mtb growth – M. tuberculosis H37Rv growth inhibitors, H37Rv strain (AID 1626). M. tuberculosis H37Rv growth inhibition; higher % means a stronger effect. inhibition, % at 10 µM; hits with a dose series show IC50 in µM. hit rate 0.95% among 220,000;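 active = confirmed in a dose series; inconclusive = inhibition above 80% but not taken into the dose series; inactive = below 80% or under 30% at every dose of the series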;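 also: bacteria incubated seven days before Alamar blue readout; 0% = bacteria only wells and 100% = bacteria with antibiotic wells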
Arbovirus anti – antivirals against arbovirus infection, primary screen, cell-based, full library, 10K replicate subset. arbovirus infection cell-based antiviral screen. inhibition, % at 10 µM. hit rate 0.37% among 200,000. AID 1251, 2008;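 active = inhibition from about 30%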;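 also: bluetongue infection of BSR cells; cell survival read as ATP light after 72 h; 0% = infected wells without compound and 100% = uninfected wells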
YopH PTP inh – YopH tyrosine phosphatase inhibitors, primary screen, biochemical, fluorescence Ex485/Em525. inhibition, %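 (about 10 µM by stock and volumes)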. hit rate 0.16% among 140,000;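 active = inhibition of 50% or more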;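 also: controls were vehicle for no effect and minimum signal wells for full effect; inactives centre near -20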
Arbovirus anti repeat – further read-out of Arbovirus anti, marked with its call; inhibition, %; measured here: 10K subset replicate screen; many hits read low in the repeat;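 first of two repeat runs on a subset; 0% = infected and 100% = uninfected wells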
An asterisk follows results filed as active; u = inconclusive; x = no result given. The list is partial; the hit share may differ from the screen's.

SMILES	RecA intein inh	Mtb bLac sens	Mtb growth	Arbovirus anti	YopH PTP inh	others
COC(=O)CSc1ccsc1C(=O)O	-2.7	-4	x	11	x
COC(=O)c1cccc(NC(=O)Nc2ccccc2OC)c1	-0.2	-4	-1%	8	x
Cc1ccc(-c2nc3ccccc3c(=O)n2-c2cccnc2)cc1	1.6	5	2%	4	-14
CNC(=O)c1[nH]cnc1C(=O)NCC(=O)OC(C)(C)C	-1.3	-3	x	x	x
COC(=O)CNC(c1ccccc1)c1cc(C)ccc1NC(=O)CNC(=O)OCc1ccccc1 (configuration not stated)	2.2	-1	-2%	-6	2
COc1ccc(OC)c(NC(=O)C(=O)NCCC2=CCCCC2)c1	-0.1	2	-7%	-6	-4
CCOC(=O)c1cnc2c(cnn2C)c1NCCCn1ccnc1	1.9	-13	2%	-3	x
CCc1cc2c(NC(C(=O)O)C(C)C)ncnc2s1 (configuration not stated)	1.1	12	-2%	-4	4
CC(C)n1cnc2c(N(C)c3cccc(Cl)c3)nc(N(CCO)CCO)nc21	4.1	15	-3%	x	x
COc1cc2c(cc1NC(=O)/C=C/c1ccccc1)oc1ccccc12	x	0	-1%	8	-29
O=C(N/N=C/c1ccc(-c2cccc(C(F)(F)F)c2)o1)c1ccccc1O	-0.5	x	u	-42	-20
N#CCCn1cc(/C=N/NC(=O)c2ccncc2)c(-c2ccc(F)cc2)n1	0.4	99	u	-15	-19
Clc1nc2ccccc2cc1-c1nnn(-c2ccccc2Br)n1	4.7	-6	3%	x	x
COc1cccc(-c2nc(CS(=O)(=O)CC(=O)Nc3ccccc3Br)c(C)o2)c1	-1.5	-6	x	x	x
CCN(CC)CCCCN1c2ccccc2Sc2ccccc21	-3.3	0	x	x	x
CC(Sc1nnnn1-c1ccccc1)C(=O)Nc1ccccc1-c1ccccc1 (configuration not stated)	8.7	-9	5%	-1	-25
CCCCn1c(N)c(N(CC(C)C)C(=O)CC2CCCCC2)c(=O)[nH]c1=O	1.1	-1	x	x	x
O=[N+]([O-])c1ccccc1S(=O)(=O)N1CCN(CC2CC3C=CC2C3)CC1 (configuration not stated)	-2.9	-2	4%	15	x
NS(=O)(=O)c1ccc(N/N=C/c2ccncc2)cc1	-0.8	1	x	x	x
O=C(NCc1cccnc1)c1ccc2c(c1)OCO2	-2.2	3	0%	-1	-14
Cc1ccc(SCC(=O)Nc2ccc(N3CCN(C)CC3)c(F)c2)cc1	2.3	12	x	19	20
O=C(Nc1cc(Cl)ccn1)C1(c2ccccc2)CC1(Cl)Cl (configuration not stated)	13	8	9%	x	x
O=C(O)c1ccc(NC(=S)NC(NC(=O)c2ccco2)C(Cl)(Cl)Cl)cc1 (configuration not stated)	1.3	-7	-5%	11	-12
O=C(NCCc1ccccc1)C1=COCCO1	-0.5	2	x	x	x
S=c1[nH]ccn1-c1ccc(Cl)cc1	-0.5	15	-7%	2	x
(further entries)
SMILES	RecA intein inh	Mtb bLac sens	Mtb growth	Arbovirus anti	YopH PTP inh	others
O=C(COc1cccc(C(F)(F)F)c1)Nc1ccccc1N1CCCCC1	3.7	4	x	x	x
CN(Cc1cn[nH]c1-c1ccc2c(c1)OCO2)C1CCOCC1	0.7	1	-5%	-8	x
O=C(CNC(=O)c1cccs1)NCC(=O)OCC(=O)c1ccc([N+](=O)[O-])cc1	-7.1	-11	-4%	-5	x
CN(C)CCCNC(CC(=O)Nc1cccc([N+](=O)[O-])c1)C(=O)O (configuration not stated)	-3.6	1	-9%	0	-24
Cc1nn(-c2ccccc2)c(C)c1NC(=O)COC(=O)c1ccc(NC(=O)CC#N)cc1	1.1	-1	x	x	x
COc1ccc(CNC(=O)CN(C(=O)c2csnn2)c2cccc3c2CCCC3)cc1	1.2	-4	x	x	x
COc1ccc(NC(=O)c2ccc(-c3ccccc3C(F)(F)F)o2)cc1	1.9	67	8%	-3	-38
COc1ccc(Br)cc1CN(C)CC(=O)Nc1cccc(S(N)(=O)=O)c1	-0.8	-8	3%	-12	x
COC(=O)c1ccccc1NC(=O)C(=O)NCC1CCCO1 (configuration not stated)	1.6	-3	-3%	-4	-30
CCOC1OC(=O)C(Cl)=C1Nc1cc(C)ccc1C (configuration not stated)	1.4	1	-5%	-4	x
O=C1C(=O)N(CCO)C(c2ccc(Br)cc2)/C1=C(\O)c1ccccc1 (configuration not stated)	-4.2	0	x	x	x
CCOC(=O)CN1C(=O)C(Sc2n[nH]c(-c3ccc(O)cc3)n2)CCc2ccccc21 (configuration not stated)	5.0	-8	5%	-19	-17
Cc1ccc(CS(=O)(=O)CC(C)(O)c2ccc(Cl)cc2)cc1 (configuration not stated)	3.6	6	x	x	x
O=C(O)C1Cc2c([nH]c3ccccc23)C(c2ccc3c(c2)OCO3)N1 (configuration not stated)	-4.0	5	3%	3	-30
O=C(O)CC1(CC(=O)Nc2ccc3ccccc3n2)CCCCC1	0.0	-10	0%	x	x
CC(=O)NC(Cc1ccc(N(CCCl)CCCl)cc1)C(=O)NCC(=O)NCC(=O)O (configuration not stated)	-1.5	7	-3%	2	x
Cc1ccc(S(=O)(=O)NCCc2cc3ccc(C)cc3[nH]c2=O)cc1	3.1	-6	x	x	x
CCCC(=O)NC(Oc1ccc(C(C)=O)cc1)C(Cl)(Cl)Cl (configuration not stated)	-5.2	-3	-2%	-5	x
CCc1nnc(NC(=O)CCC(=O)NC2CCCCCCC2)s1	-1.3	-9	x	x	x
COc1cccc(-n2nnc3c(=O)n(CC(=O)N4CCC(Cc5ccccc5)CC4)cnc32)c1	4.2	96	3%	-1	-2
Cc1ccc(S(=O)(=O)N2CCCCC2C(=O)NCc2ccco2)cc1 (configuration not stated)	0.9	-10	7%	-9	-22
CN(C)c1cccc2c(S(=O)(=O)Nc3ccccn3)cccc12	2.7	-18	-2%	9	24
O=C(N/N=C/c1ccc(F)cc1)c1cc(-c2ccco2)nc2ccccc12	2.2	-4	x	-7	-27
CCN(CCCNC(=O)C1CCCN(S(=O)(=O)CC)C1)c1cccc(C)c1 (configuration not stated)	-2.1	-6	-20%	-3	-49
CCOc1ccc(NC(=O)CSc2nccn2Cc2ccco2)cc1	-1.8	20	x	x	x

Grouped by structure: the entries above containing a cyano group (2)
SMILES	RecA intein inh	Mtb bLac sens	Mtb growth	Arbovirus anti	YopH PTP inh	others
N#CCCn1cc(/C=N/NC(=O)c2ccncc2)c(-c2ccc(F)cc2)n1	0.4	99	u	-15	-19
Cc1nn(-c2ccccc2)c(C)c1NC(=O)COC(=O)c1ccc(NC(=O)CC#N)cc1	1.1	-1	x	x	x

2 records picked at random from the list so far:
SMILES	RecA intein inh	Mtb bLac sens	Mtb growth	Arbovirus anti	YopH PTP inh	others
O=C(CNC(=O)c1cccs1)NCC(=O)OCC(=O)c1ccc([N+](=O)[O-])cc1	-7.1	-11	-4%	-5	x
CN(C)CCCNC(CC(=O)Nc1cccc([N+](=O)[O-])c1)C(=O)O (configuration not stated)	-3.6	1	-9%	0	-24

The list continues:
SMILES	RecA intein inh	Mtb bLac sens	Mtb growth	Arbovirus anti	YopH PTP inh	others
CC(C)OC(=O)c1cccc(NC(=O)c2ccccc2)c1	3.5	1	-9%	-5	33
COc1ccccc1-c1ccc(SCC(=O)N2CCOCC2)nn1	-0.3	-8	6%	11	x
COc1ccccc1-c1nnc(SCC(=O)OC(C)C)o1	0.9	97	58%	-1	-29
CC(=O)CC1OC(=O)C(Br)=C1NCc1ccccc1 (configuration not stated)	1.9	0	-1%	-4	-55
CCOC(=O)c1[nH]c(C)c(C(=O)OCC(=O)N(CC)C2CCS(=O)(=O)C2)c1C (configuration not stated)	-0.6	6	1%	3	-13
CC(C)CNC(=O)c1oc2ccccc2c1COc1ccccc1	3.5	11	17%	4	-4
Cc1cc(C)c(S(=O)(=O)N2CCCOC2CNC(=O)C(=O)NCc2cccs2)c(C)c1 (configuration not stated)	-5.1	5	-10%	15	-15
Cc1ccc(CNC(=O)C2CCC(=O)N(CCc3cccc(F)c3)C2)cc1 (configuration not stated)	3.5	-10	x	x	x
COC(=O)COc1cc(=O)oc2ccc(NS(=O)(=O)c3ccccc3)cc12	-3.2	u	x	x	x
Cc1ccc(NC(=S)NC2CCN(Cc3ccccc3)CC2)cc1	-4.9	4	3%	22	-19
O=C1c2ccsc2SCCN1Cc1c(Cl)cccc1Cl	6.7	-6	6%	0	2
Cc1onc(-c2ccccc2)c1CNS(=O)(=O)c1ccc(F)cc1F	1.3	-8	-2%	x	x
Cc1ccc(NC(=O)c2ccc3c(c2)OCCO3)nc1	1.1	-3	x	x	x
CCNC(=O)CC1SC(=Nc2ccc(C)cc2)NC1=O (configuration not stated)	0.2	-4	2%	1	-19
COc1ccc(CNC(=O)[C@@H]2CC=C[C@@H]3CCN(Cc4ccc(Cl)c(Cl)c4)C(=O)[C@@H]32)cc1	16	53	7%	x	x
Cc1ccccc1OCCn1cc(/C=C(\C#N)C(=O)NCc2ccco2)c2ccccc21	-5.4	-3	5%	-14	-30
Cc1cccc(C)c1NC(=O)c1cccc(COc2cc(Cl)ccc2Cl)c1	1.2	-1	-1%	-12	-3
Cc1ccc(NC(=O)CCC(=O)OC(C(=O)c2ccc(C)c(C)c2)c2ccccc2)c(C)c1 (configuration not stated)	-3.3	-3	3%	-1	-20
O=C(CSc1nnc(-c2cccnc2)n1-c1ccccc1)N1CCN(c2ccc(F)cc2)CC1	-4.4	9	1%	-3	9
CCC(C)(C)c1ccc(OCCCC[n+]2cccc(C)c2)c(C(C)(C)CC)c1	12	x	u	-23	x
CCOc1ccc(-c2nnc3ccc(SCC(=O)Nc4cc(C)on4)nn23)cc1	-0.4	-5	4%	10	x
Cc1ccc(C)c(OCCn2c(=O)c3c(ncn3C3CCCC3)n(Cc3ccccc3)c2=O)c1	6.8	0	19%	-9	-9
CCOC(=O)N1CCN(C(=O)CN(c2cccc(C)c2)S(=O)(=O)c2ccccc2)CC1	-3.2	-9	-3%	-1	-9	Arbovirus anti repeat=2
Cc1cccc(-c2nnc(SCc3ccccc3)o2)c1	2.3	4	-8%	5	-2
O=C(O)c1cc(C(F)(F)F)nc2ccccc12	-0.3	6	-9%	5	-2

Grouped by structure: those above with a CF3 group
SMILES	RecA intein inh	Mtb bLac sens	Mtb growth	Arbovirus anti	YopH PTP inh	others
O=C(N/N=C/c1ccc(-c2cccc(C(F)(F)F)c2)o1)c1ccccc1O	-0.5	x	u	-42	-20
O=C(COc1cccc(C(F)(F)F)c1)Nc1ccccc1N1CCCCC1	3.7	4	x	x	x
COc1ccc(NC(=O)c2ccc(-c3ccccc3C(F)(F)F)o2)cc1	1.9	67	8%	-3	-38
O=C(O)c1cc(C(F)(F)F)nc2ccccc12	-0.3	6	-9%	5	-2

Part of the list above in order of heavy-atom count, lowest first.
SMILES	RecA intein inh	Mtb bLac sens	Mtb growth	Arbovirus anti	YopH PTP inh	others
COC(=O)CSc1ccsc1C(=O)O	-2.7	-4	x	11	x
Cc1cccc(C)c1NC(=O)c1cccc(COc2cc(Cl)ccc2Cl)c1	1.2	-1	-1%	-12	-3
CC(=O)NC(Cc1ccc(N(CCCl)CCCl)cc1)C(=O)NCC(=O)NCC(=O)O (configuration not stated)	-1.5	7	-3%	2	x

(continued)
SMILES	RecA intein inh	Mtb bLac sens	Mtb growth	Arbovirus anti	YopH PTP inh	others
COC(=O)[C@@H](Cc1c[nH]c2ccccc12)NC(=O)CNC(=O)c1ccccc1OC	0.5	0	x	x	x
CC(=O)Nc1cccc(C(=O)N(CCc2ccccc2)Cc2ccccc2)c1	2.5	-6	x	x	x
Nn1c(SCC(=O)Nc2cccc(S(N)(=O)=O)c2)nnc1C1CC1	-2.5	-3	1%	1	x
COc1cc(CN2CC(=O)N(c3ccccc3Cl)C2=S)cc(OC)c1OC	-0.9	15	x	x	x
CNC(=O)c1[nH]cnc1C(=O)N[C@@H](CC(C)C)C(=O)OC(C)(C)C	0.1	-9	0%	-2	x
COc1cccc(CNCC(=O)N2C(C)CCCC2C)c1 (configuration not stated)	-0.7	-5	-2%	1	-47
COc1ccc(-n2c(C)c(C(C)=O)c(C(C)=O)c2C)cc1OC	-0.3	24	4%	-1	5
CC(=O)Nc1cccc(NC(=O)CSc2nnc(Cc3cccn3C)n2CCc2ccccc2)c1	0.6	-6	-2%	-5	-34
Cc1c(N=C(N)/N=C(\N)Nc2ccccc2)c(=O)n(-c2ccccc2)n1C	-3.3	-4	8%	7	-15
COc1ccc2sc(N(CCCN(C)C)C(=O)c3ccc(S(=O)(=O)N(C)Cc4ccccc4)cc3)nc2c1	0.7	-11	x	x	x
O=C(COC(=O)CNC(=O)c1ccccc1F)Nc1cccnc1Cl	-1.8	-5	-4%	-7	x
CCOC(=O)C1=C(CC)Nc2ccccc2N=C1N	-4.2	0	0%	21	x
